# T cell modulator – T cell immune modulation candidate | 2C CD8+ T cell-vesicle binding, flow cytometry; stronger effect = lower value | 0.068% of 330,000 active | calls only at 7 µM;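 active means response, share of CD8 T cells binding vesicles, and their 90th percentile fluorescence all below set limits, cut at about 80% in these data, passing the limit was not always enough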
#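 incubation = binding step 1.5 h, 37 °C, antibody labelling 20 min, ice | test system = 2C mouse CD8+ T cells | read-out basis = percent CD8+ FL2 mean versus row control | controls = Peptide-free naked vesicles (low) and QL9 vesicles with 0.7% DMSO vehicle (high) | detection = flow cytometry of vesicle-bound cells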
# Dynein cargo inh – blocks dynein driven cargo transport along microtubules. 3617.4 mouse cells, GR-EGFP nuclear translocation imaging; test concentration mostly 20 µM; stimulated with dexamethasone, 1 µM; stronger effect = lower value. z-score, hits read low. 0.47% of 220,000 active;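 active means plate z-score of nuclear minus cytoplasmic receptor signal below a set negative limit, without overly bright fluorescence or cell loss, cut at about -3.5 in these data, passing the limit was not always enough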;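 further: z-score of nuclear minus cytoplasmic ring GR-EGFP intensity difference per well; some compounds called inactive have numbers as strong as hits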
#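 Also added – dexamethasone, 1.0 µM final · Buffer or medium – tet-free, stripped-serum medium · Schedule – induction 48 h, compound 1 h, agonist 30 min · Detection – formaldehyde fixation, Hoechst nuclear stain, 10x automated fluorescence imaging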
# WT yeast gro inh – growth inhibition of WT yeast, mitochondrial fusion screen. mitochondrial fusion phenotypic screen, WT strain. inhibition, % at 10 µM. 2.1% of 190,000 active; in the data active means inhibition above about 58%; tested in S. cerevisiae
# M17LAP inhibition – P. falciparum M17LAP inhibitors, primary screen, biochemical, fluorogenic H-Leu-NHMec substrate, 1536-well (AID 1619) | recombinant M17LAP, H-Leu-NHMec fluorogenic kinetic assay; higher % means a stronger effect | inhibition, % at 30 µM, or IC50 in µM where a hit was titrated | 0.38% of 220,000 active;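 active means compound inhibiting the enzyme by more than half at any dose during confirmatory dose-response retesting; inconclusive means strong single-dose inhibitors picked by rank but not retested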;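 further: plate controls were full reaction with DMSO carrier for no effect and no enzyme background for full effect; strong numbers were not always called active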
# MT stabilizer – stabilizes microtubules in HeLa cells; % tubulin-high responders, % at 10 µM; HeLa tubulin immunostaining HCS, 24 h; share of cells brighter than vehicle mean+2SD; 0.83% of 200,000 active;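 active means plate Z-score above 3 for both tubulin-high and condensed-nucleus cell shares, with cell loss under 80%, at 10 µM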;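 further: anti alpha tubulin signal scored within the nucleus-defined area of each cell; some results filed as inactive read as strong as hits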
# Yfh1-off respiration – mitochondrial function rescue without frataxin homolog – Friedreich's ataxia, plus single-dose screen, dose response (AID 1465); S. cerevisiae Yfh1-off respiration, WST-1 reduction, 72 h; higher fold induction means a stronger effect; fold induction at 50 µM, or EC50 in µM where a hit was titrated; 0.074% of 220,000 active;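 active means fold induction of absorbance versus untreated yeast above a set limit, then at least 30% activation at any dose in follow-up; inconclusive means repeats straddling the limit, or above it without dose testing; inactive means fold induction below the set limit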;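 further: activators that raise dye reduction in frataxin-depleted yeast; strong numbers were not always called active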
# Autophagy mod – modulators of autophagy; AID 463193; 0.98% of 190,000 active; MEF GFP-LC3 puncta imaging; test concentration mostly 10 µM; calls only at 10 µM (by protocol);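 active means percentage of spot-positive cells more than 3 SD above its plate mean, without a fluorescence outlier flag or 80% toxicity; inconclusive means no clear call, values can overlap the other calls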;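 further: spot-positive cell cutoff set from DMSO-treated cells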
# P. falciparum M1AAP – malaria alanyl aminopeptidase activity blockers – biochemical, fluorogenic H-Leu-NHMec substrate, 1536-well (AID 1445); inhibition, % at 30 µM, or IC50 in µM where a hit was titrated; 0.42% of 220,000 active; recombinant M1AAP, H-Leu-NHMec fluorogenic kinetic assay; higher % means a stronger effect;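 active means primary inhibition above the hit cutoff, then over 50% inhibition at one or more dose response concentrations, cut at about 23% in these data, passing the limit was not always enough; inconclusive means conflicting primary data, or primary hits not chosen for dose response; inactive means low primary inhibition, or under 50% at every dose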;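 further: plate controls were DMSO full reaction for no effect and no enzyme background for full effect; strong numbers were not always called active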
# WT yeast gro inh mutant strain – also measured in WT yeast gro inh; calls as there; inhibition, %; mitochondrial fusion phenotypic screen, mutant strain inhibition
# Dynein cargo inh cytoplasmic EGFP – also measured in Dynein cargo inh; calls as there; z-score; measured here: cytoplasmic GR-EGFP intensity; stronger effect = higher value
# Dynein cargo inh nuclear GR-EGFP – second read-out of Dynein cargo inh, no call of its own (marks repeat the call); z-score; measured here: nuclear GR-EGFP intensity;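 lower value marks the stronger effect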
# Dynein cargo inh cell count – also measured in Dynein cargo inh; calls as there; z-score; measured here: cell count per field
# T cell modulator vesicle-bound % – further read-out of T cell modulator, marked with its call; double positive events, %; measured here: CD8+ vesicle-bound cell fraction;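 binding gate set so that unloaded-vesicle control wells show 10% double positive cells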
# MT stabilizer Hoechst-high % – also measured in MT stabilizer; calls as there; % Hoechst-high responders; measured here: nuclear condensation Hoechst responders;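 share of cells brighter than vehicle mean plus two SD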
# MT stabilizer cytotoxicity % – second read-out of MT stabilizer, no call of its own (marks repeat the call); toxicity, %; measured here: cytotoxicity by cell density;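 0% = mean cell density of plate MIN control wells and 100% = no cells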
# Autophagy mod cell loss 18 h – second read-out of Autophagy mod, no call of its own (marks repeat the call); toxicity, %; measured here: cell loss, nuclei count;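 cell loss after 18 h compound exposure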
# * marks the source's active call; other numbers are inactive results; i = inactive; ? = inconclusive; · = no result given; + = active, no number.
SMILES,T cell modulator,T cell modulator vesicle-bound %,Dynein cargo inh,Dynein cargo inh cytoplasmic EGFP,Dynein cargo inh nuclear GR-EGFP,Dynein cargo inh cell count,WT yeast gro inh,WT yeast gro inh mutant strain,M17LAP inhibition,MT stabilizer,MT stabilizer Hoechst-high %,MT stabilizer cytotoxicity %,Yfh1-off respiration,Autophagy mod,Autophagy mod cell loss 18 h,P. falciparum M1AAP
Cn1c(CCN2CCN(c3ccccc3)CC2)nc2cc(NC(=O)c3ccco3)ccc21,i,31,-0.1,-0.26,0.035,1.5,76*,-6.1*,6%,2.0,1.5,10,·,i,-5,5%
CSc1nsc(SC)c1NC(=O)OCC1CCCO1 (centres undefined),i,2,1.2,-0.26,0.64,-1,3,-6,6%,6.6,4.6,6.6,i,i,15,2%
O=C(NC(=S)NC1CCSC1=O)c1ccccc1Cl (centres undefined),i,4,-0.3,-0.1,0.27,0.039,-7,6,-2%,2.5,1.8,5.7,i,i,-21,5%
O=C(CCN1CCOCC1)Nc1ccccc1,i,66,-0.091,-0.23,-0.9,0.55,4,1,1%,2.5,1.5,8.3,i,i,-7,2%
Cc1cc2c(c(=O)o1)C1(C(=O)N(CC(=O)O)c3ccccc31)C(C#N)=C(N)O2 (centres undefined),i,55,1.5,-0.36,0.4,-0.7,-1,-2,-12%,3.2,2.2,12,i,i,14,2%
CCn1c2ccccc2c2cc(NC(=O)C(C)C)ccc21,i,9,0.2,-0.045,-0.49,0.63,-2,3,-16%,3.1,1.4,3.8,i,i,-1,0%
CN(C)c1ccc(/C=N/NC(=S)NCc2ccccc2)cc1,i,9,0.23,-0.17,-0.23,-0.048,70*,62*,-2%,3.4,2.4,10,i,i,-21,13%
CCn1c(Cc2ccccc2)nnc1SCC(=O)c1cccc([N+](=O)[O-])c1,i,9,0.63,-0.2,-0.12,-0.14,18,8,8%,3.7,1.7,1.1,i,i,-12,10%
O=[N+]([O-])c1ccc(N/N=C\c2cccn2-c2ccccc2)nc1,i,27,-0.78,1.8,0.68,0.85,61*,39*,6%,6.9,3.2,17,·,+,-2.2*,11%
COC(=O)c1cn(NC(=O)C2CCC(C(C)(C)C)CC2)c(=O)c2ccccc12 (centres undefined),i,18,-0.57,-0.022,0.18,0.93,-4,22,13%,2.3,1.3,6.2,i,i,9,6%
CCCCCOc1ccc(NC(=O)C(=O)NCCC2=CCCCC2)cc1,i,55,0.85,0.0044,0.9,-1.5,11,5,6%,1.9,2.2,1.6,i,i,-4,-4%
COc1ccc(CCN2CC(O)=C(c3nc(C)cs3)C2=N)cc1OC,i,34,0.021,-0.23,-0.65,-0.2,-26,-1,6%,2.1,1.8,0.4,i,i,-3,12%
C/C(=N\Nc1nnc(C)c(=O)[nH]1)C(=O)O,i,30,0.065,-0.18,0.56,0.54,24,-11,-8%,2.1,1.8,7.8,i,i,9,7%
N#Cc1nc(-c2ccc(OCc3ccccc3Cl)cc2)oc1NCCCn1ccnc1,i,4,-0.32,-0.3,-0.21,1.1,1,-20,9%,3.9,4.0,10,·,i,2,-6%
Cc1cccc(CSCCNC(=O)CSCc2ccc([N+](=O)[O-])cc2)c1,i,26,0.4,-0.18,-0.18,0.55,15,33,4%,3.9,2.8,5.3,i,i,-22,2%
Cc1nn2c(N3CCN(C(=O)c4ccco4)CC3)cc(C(C)(C)C)nc2c1-c1ccc(Cl)cc1,·,·,-0.49,-0.092,-0.34,0.13,17,4,6%,i,·,100,i,i,45,-6%
COC(=O)C1(S(=O)(=O)c2ccc(C)cc2)CCOCC1,i,28,0.076,-0.33,0.11,0.2,-10,-8,11%,6.0,4.0,8.8,i,i,-15,9%
Cc1cc(C)c(C#N)c(SCC(=O)c2ccc(Cl)cc2Cl)n1,i,25,-0.7,-0.028,-0.94,0.82,17,5,4%,3.7,2.2,4.3,i,i,6,1%
CS(=O)(=O)N1N=C(c2ccc(Br)cc2)CC1c1ccc2c(c1)OCO2 (centres undefined),i,60,-0.45,0.41,-0.34,0.26,-12,-6,4%,1.3,1.7,9.1,i,i,29,11%
Fc1ccccc1CNc1cc(Cl)cc(Cl)c1,i,61,-0.2,-0.16,0.45,0.56,38,38,15%,2.4,1.5,7.9,i,i,12,1%
Cc1cc(NC(=O)c2c([N+](=O)[O-])cnn2C)no1,i,43,0.69,-0.02,0.62,-1.4,-10,-10,6%,1.1,1.5,11,i,i,-1,13%
COc1ccc(C(=O)O/N=C/c2ccc(S(=O)c3ccc(Cl)cc3)nc2)cc1 (centres undefined),i,56,-0.38,-0.23,-0.59,0.71,-6,8,9%,1.0,1.9,5.8,i,i,-5,-1%
Cc1ccc(S(=O)(=O)CCC(=O)Nc2nc3c(s2)CCCC3)cc1,i,36,0.6,-0.007,0.078,-1,16,7,-1%,3.4,1.5,4.5,i,i,1,?
Cc1c(-n2cc(C(=O)c3cc(Cl)ccc3O)cc(C#N)c2=O)c(=O)n(-c2ccccc2)n1C,i,34,0.73,-0.22,-0.71,-0.12,10,2,-1%,2.8,1.9,8.3,i,i,1,6%
CC1(C)Oc2ccc(NC(=O)c3ccco3)cc2O1,i,17,0.98,-0.056,-0.00044,-1.4,11,1,7%,2.5,2.3,0.5,i,i,-4,2%

# More results follow:
SMILES,T cell modulator,T cell modulator vesicle-bound %,Dynein cargo inh,Dynein cargo inh cytoplasmic EGFP,Dynein cargo inh nuclear GR-EGFP,Dynein cargo inh cell count,WT yeast gro inh,WT yeast gro inh mutant strain,M17LAP inhibition,MT stabilizer,MT stabilizer Hoechst-high %,MT stabilizer cytotoxicity %,Yfh1-off respiration,Autophagy mod,Autophagy mod cell loss 18 h,P. falciparum M1AAP
O=C(Cc1ccccc1)N(c1ccc(F)cc1)C1C=CS(=O)(=O)C1 (centres undefined),i,9,-1.1,-0.19,-0.23,0.52,4,-18,0%,4.1,2.2,11,i,i,13,1%
O=C(CCN1C(=O)c2ccccc2C1=O)N1CCN(C2c3ccccc3-c3ccccc32)CC1,i,42,0.45,-0.23,0.084,-0.2,57,8,5%,2.0,1.9,3.9,i,i,12,3%
Cc1ccccc1OCC(=O)NNC(=O)Nc1ccc(Cl)cc1,i,29,-0.55,-0.18,-0.34,0.15,18,7,12%,2.8,1.0,4.4,i,i,46,2%
Cc1ccc(NC(=O)c2cc(Cl)nc3ccccc23)cc1,i,24,-0.75,-0.26,-0.28,0.36,-12,-8,3%,1.1,1.8,7.9,i,i,1,-1%
Cc1cc(-c2ccc(/C=N/n3cnnc3)o2)c([N+](=O)[O-])cc1C,i,14,-0.48,-0.2,0.11,0.81,14,-11,5%,3.0,1.9,7.6,i,i,2,11%
CCn1c(CNc2ccc(OC)cc2)nnc1SCC(=O)N1CCCc2ccccc21,i,21,-0.74,-0.22,-0.33,1.5,0,0,14%,3.0,1.4,5.7,i,i,11,8%
CCOC(=O)c1[nH]c2ccccc2c1NC(=O)c1nonc1C,i,21,-0.18,-0.35,-0.2,0.69,15,11,-4%,4.0,2.5,3.6,i,i,5,1%
c1ccc(-c2nc(NCCCn3ccnc3)c3oc4ccccc4c3n2)cc1,i,14,-0.9,-0.22,-1.2,0.25,-7,0,7%,3.8,2.7,10,i,i,-4,7%
O=C(/C=C/c1ccccc1)N/C(=C/c1ccccc1)C(=O)NCCO,i,12,-0.43,-0.18,0.16,0.027,-22,-5,9%,3.8,1.6,6.5,i,i,-20,2%
COc1ccc(C(=O)N2CC3(CC(c4ccc(Cl)cc4)=NO3)C[C@H]2C(=O)NCC(N)=O)cc1 (some centres undefined),i,30,-0.16,-0.22,0.34,0.74,-3,-6,5%,3.4,2.4,5.1,i,i,18,21%
Cc1ccc(-c2csc(Cc3nc(-c4cc5ccccc5oc4=O)cs3)n2)cc1,i,50,0.5,0.79,1.2,-0.21,25,16,3%,1.4,1.4,6.0,i,i,38,4%
c1ccc(-c2nc3ccccn3c2NCc2ccc3c(c2)OCO3)cc1,i,61,0.34,-0.21,-0.8,1.1,26,28,-25%,3.2,1.9,4.1,i,i,-1,10%
COc1ccc(OC)c(N2CC(O)=C(c3nc4ccccc4s3)C2=N)c1,i,28,0.52,-0.26,-0.76,0.96,-1,-15,-3%,5.5,2.5,1.6,i,i,-12,-10%

# The list is partial, so the mix of outcomes need not match the whole.
